Menin MLL FP FL: qHTS Assay for Inhibitors Targeting the Menin-MLL Interaction in MLL Related Leukemias: Competition With Fluorescein Labeled MLL-derived Peptide; Fluorescence polarization, fluorescein-MLL peptide displacement from menin; FP activity change, % at 61.4 µM; 290,000 tested, under 10 active; AID 1766, 2009; inconclusive = falling polarisation curve, or a change in total fluorescence; inactive = total fluorescence flat and polarisation flat or rising; no compound was filed as active; the % refers to the polarisation; negative = inhibition;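 also: % of control where 0% means no effect; inhibitors lower the polarisation; unlabelled MLL peptide was the positive control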
gsp ag: qHTS for Agonist of gsp, the Etiologic Mutation Responsible for Fibrous Dysplasia/McCune-Albright Syndrome: qHTS; gsp mutant cells, cAMP HTRF, 30 min; control for the full effect not named in the record; 0.13% of 340,000 active; Potency, µM (titrated, usually from 76.9 µM), without a hit: top-dose activation (cAMP increase), actives largely listed as activators; AID 624287, 2012; active = well fitted activation curve with a large enough effect; inconclusive = small, poorly fitted or top-dose-only effect, or another doubt; inactive = no such curve, though single readings can be large or run the other way; cell line not stated here;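 also: phosphodiesterase inhibitor Ro 20-1724 added with compounds to block cAMP breakdown; potency is read from the fitted curve at half-maximal effect; nearly all actives have a fitted effect of over 60% in size; about a fifth of the inactives were tested at one dose only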
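Cells stably selected in G418 were plated at 2000/well, grown 16-24 hr, then given compounds in DMSO with the PDE inhibitor […] (300 uM solution added) for 30 min at 37C; cAMP was read by HTRF.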
ClpP mod: qHTS Assay for Activators of ClpP; ATP-dependent Clp protease proteolytic subunit (Bacillus subtilis (strain 168)), P80244; purified B. subtilis ClpP, FRET peptide cleavage, 20 min; Potency, µM (highest dose often 57.5 µM), for the others: top-dose activity change, negative = active; 1.9% of 340,000 active; active = well fitted falling curve with a large enough effect; inconclusive = small, poorly fitted or top-dose-only effect; inactive = no such curve, though single readings can be large or run the other way; also: potency is read from the fitted curve at half-maximal effect; the source files actives as falling curves though it sought activators and does not explain the sign; nearly all actives have a fitted effect of over 65% in size; many hits overshoot -100%
Target sequence (P80244 whole entry, looked up): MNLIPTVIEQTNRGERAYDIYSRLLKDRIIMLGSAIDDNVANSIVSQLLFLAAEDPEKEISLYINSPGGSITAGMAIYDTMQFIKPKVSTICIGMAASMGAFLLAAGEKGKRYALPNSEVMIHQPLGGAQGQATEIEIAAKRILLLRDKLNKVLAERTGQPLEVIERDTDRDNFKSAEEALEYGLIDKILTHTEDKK
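Purified B. subtilis ClpP, 10 microg/mL final in Tris/HCl pH8 with KCl, BSA, glycerol and Tween-20, cleaved an Abz/nitrotyrosine-quenched decapeptide. Fluorescence (ex 320, em 430) was read at 0 and 20 min at room temperature. Delta was normalized to 5.8 microM ADEP and DMSO/no-enzyme controls.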
TRPV1 PAM: HTS Assay for Compounds that Act as Potentiators of the Vanilloid Receptor 1. Transient receptor potential cation channel subfamily V member 1 (Homo sapiens), Q8NER1. TRPV1-expressing cells, Fluo-8 calcium influx, capsaicin EC20 potentiation; host cell line not named in the record; control for the full effect not named in the record. potentiation, % at 8.33 µM. 0.02% of 320,000 active; active means potentiation above 80%; inconclusive means 30% to 80%; inactive means below 30%; also: 0% is about no effect
Target sequence (Q8NER1 whole entry, looked up): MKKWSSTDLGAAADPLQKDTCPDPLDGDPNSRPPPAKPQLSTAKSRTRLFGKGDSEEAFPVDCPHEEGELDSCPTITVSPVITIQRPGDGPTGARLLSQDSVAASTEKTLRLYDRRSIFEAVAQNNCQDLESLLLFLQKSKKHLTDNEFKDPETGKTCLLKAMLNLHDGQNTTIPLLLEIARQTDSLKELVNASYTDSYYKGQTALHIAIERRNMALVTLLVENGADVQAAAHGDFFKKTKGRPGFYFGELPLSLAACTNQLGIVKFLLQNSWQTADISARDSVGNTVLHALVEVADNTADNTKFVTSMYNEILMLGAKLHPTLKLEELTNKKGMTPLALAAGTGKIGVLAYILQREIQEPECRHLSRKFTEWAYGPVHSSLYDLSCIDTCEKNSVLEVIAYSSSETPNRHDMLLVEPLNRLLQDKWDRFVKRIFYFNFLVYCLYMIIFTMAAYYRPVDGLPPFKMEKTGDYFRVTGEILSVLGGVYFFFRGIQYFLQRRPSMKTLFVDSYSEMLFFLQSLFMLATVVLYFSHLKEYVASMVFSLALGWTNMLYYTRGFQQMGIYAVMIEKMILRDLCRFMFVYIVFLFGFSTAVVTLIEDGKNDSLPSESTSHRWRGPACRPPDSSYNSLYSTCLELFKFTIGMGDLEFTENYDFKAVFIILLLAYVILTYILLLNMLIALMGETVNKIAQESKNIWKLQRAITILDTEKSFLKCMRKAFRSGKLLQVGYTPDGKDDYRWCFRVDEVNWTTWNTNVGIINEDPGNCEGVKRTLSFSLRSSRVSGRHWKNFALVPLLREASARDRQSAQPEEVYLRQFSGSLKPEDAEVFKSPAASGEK
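TRPV1-expressing cells were cultured overnight at 35.5C and loaded with Fluo-8 calcium dye for 40 to 90 min at room temperature. After a 10 s baseline, compound was added and calcium influx was read kinetically for 3 min (ex 480/em 520 nm).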
D2 PAM: Beta-Arrestin HTS for Positive Allosteric Modulators of the Human D2 Dopamine Receptor: Potentiators. D(2) dopamine receptor (Homo sapiens), P14416. DiscoveRx D2 beta-arrestin cells, luminescence, 90 min; 100% = 57 uM dopamine signal. potentiation, % (test concentration not listed). 0.23% of 360,000 active; active = potentiation of 50% or more; inconclusive = 30% to 50%; inactive = 30% or less;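 also: compound concentration not given in the record; tested on top of an EC20 dose of dopamine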
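PathHunter D2 cells, attached overnight at 37 deg C, received compound in DMSO plus dopamine at EC20 (50 nM final) for 90 min at 37 deg C. Beta-arrestin recruitment was read as luminescence after 1 h with detection reagent at ambient temperature.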
gsp antag: qHTS for Antagonists of gsp, the Etiologic Mutation Responsible for Fibrous Dysplasia/McCune-Albright Syndrome: qHTS. gsp-mutant cells, cAMP HTRF, 30 min; control for the full effect not named in the record. 0.4% of 340,000 active. Potency, µM (series often up to 76.9 µM), inactives show at the highest dose activity change, negative = inhibition, most hits filed as inhibitors; active = falling curve of any shape with a large fitted effect; inconclusive = falling curve, mostly with a smaller effect; inactive = flat or rising curve; cell line not stated here;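 also: intracellular cAMP measured with PDE inhibitor Ro 20-1724 present during compound exposure; potency is read from the fitted curve at half-maximal effect; % is scaled to controls: 0 for no effect and ±100 for the full control effect; nearly all actives have a fitted effect of over 65% in size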
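Cells, 2000/well, grown 16–24 h in DMEM 10% FBS with 0.5 mg/ml G418, then compounds plus […] (300 uM addition stock), 30 min at 37C. cAMP read by HTRF (cAMP-d2 and anti-cAMP antibody-K in lysis buffer) after 30 min RT.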
Sfp PPTase inh: qHTS Assay for Inhibitors of Bacillus subtilis Sfp phosphopantetheinyl transferase (PPTase) | 4'-phosphopantetheinyl transferase ffp (Bacillus subtilis), Q9F4F7 | Biochemical Sfp PPTase activity, qHTS | Potency, µM, for inactives: max response, negative = inhibition, most hits filed as inhibitors | 3.5% of 310,000 active; active = well fitted inhibition curve with a large enough effect; inconclusive = small, poorly fitted or top-dose-only effect, or another doubt; inactive = no such curve, though single readings can be large or run the other way;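 also: the enzyme is Sfp with the accession as filed and its product quenches rhodamine fluorescence; potency is read from the fitted curve at half-maximal effect; 0% = enzyme reaction without inhibitor and -100% = no enzyme wells; top concentration of the series not given in the record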
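Buffer: 50 mM Hepes-Na pH 7.6, 10 mM MgCl2, 0.01% Nonidet P-40, 0.01% BSA. Enzyme 15 nM, pre-exposed to compound 15 min; substrates then added and fluorescence change tracked over 30 min.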
Starred values were filed as active, the others as inactive; u = inconclusive; x = no result given; & = joins results of further samples; [ ] = remark or other dose. Compounds as they come, and some 5.1% of all compounds hit somewhere here.

SMILES	Menin MLL FP FL	gsp ag	ClpP mod	TRPV1 PAM	D2 PAM	gsp antag	Sfp PPTase inh
c1ccc(N2CCN(c3cnc4ccccc4n3)CC2)cc1	-1.7	-35%[inhibitor]	0.7%	8	-29	-3%	u
S=C(NCc1ccncc1)NC1CCCCC1	0.3	u	1.1%	-31	-4	3%	-2%
CSc1ccc(CNC2CC2)cc1	0.2	-22%	-1.4%	1	-11	-1%	9%
O=C(CSc1nnc(-c2cccs2)o1)OC1CCCCC1	-1.9	-50%[inhibitor]	-12%	-1	-13	-14%	-12%
CN1CCN(CCOc2ccc(-c3ccccc3)cc2)CC1	-5.6	10%	-0.4%	-4	1	-5%	-25%
Cc1nn(CCOc2ccccc2)c(=O)n1-c1c(F)cccc1F	0.0	-11%	-4.4%	-2	4	4%	9%
O=C(CCn1c(=S)oc2ccccc21)Nc1ccc(F)cc1	-4.9	u	0.9%	-20	-1	5%	12%
COC(=O)C1=NNC(C(=O)c2ccco2)C1c1ccc(OC)cc1 (stereo not given)	-6.9	-12%	-0.4%	-11	-11	15%	7%
Cc1cccc(NC(=O)CSc2nc3c(oc4ccccc43)c(=O)n2-c2ccccc2)c1	-0.2	0%	-6.8%	12	-4	10%	11%
O=C(CN1C(=O)C2CC=CCC2C1=O)NC1CCCCC1 (stereo not given)	-1.8	21%	-1.2%	15	-6	11%	24%
COc1cc(/C=N/Nc2ccccc2[N+](=O)[O-])cc(OC)c1O	1.2	-9%[15.4 µM]	x	6	15	-17%	-1%
COc1ccc(N2CCN(C(=O)Cn3c(=O)c4cccn4c4cccnc43)CC2)cc1	x	-17%	-8.0%	-4	3	-7%	-6%

Just ClpP mod, TRPV1 PAM and Sfp PPTase inh, for 5 of the compounds above:
SMILES,ClpP mod,TRPV1 PAM,Sfp PPTase inh
S=C(NCc1ccncc1)NC1CCCCC1,1.1%,-31,-2%
CSc1ccc(CNC2CC2)cc1,-1.4%,1,9%
O=C(CSc1nnc(-c2cccs2)o1)OC1CCCCC1,-12%,-1,-12%
CN1CCN(CCOc2ccc(-c3ccccc3)cc2)CC1,-0.4%,-4,-25%
Cc1nn(CCOc2ccccc2)c(=O)n1-c1c(F)cccc1F,-4.4%,-2,9%

Continuation:
SMILES	Menin MLL FP FL	gsp ag	ClpP mod	TRPV1 PAM	D2 PAM	gsp antag	Sfp PPTase inh
O=C(COc1ccc2ccc(=O)oc2c1)NCc1ccccn1	x	-11%	4.6%	8	-2	4%	1%
CCN(C(=O)CCS(=O)(=O)c1ccc2c(c1)oc(=O)n2C)c1ccc(OC)cc1	x	-37%	-0.5%&2.1%	-13	-6	0%	14%
CC1=CCC(C(=O)O)C(C(=O)O)C1 (stereo not given)	2.5	-19%	-0.9%	-10	-1	1%	1%
CCC(=O)Nc1cccc2ccccc12	4.6	11%[15.4 µM]	x	-2	-5	4%	18%
COc1ccc(CNC(=O)CCn2c(=O)oc3ccccc32)c(OC)c1	0.6	-78%[inhibitor]	1.7%	-13	-10	10%	1%
O=C(Nc1ccc(Cc2ccncc2)cc1)c1ccco1	1.8	u	0.2%	-14	-16	-6%	15%
C[C@@H](C(=O)N1CCN(C(=O)OC(C)(C)C)CC1)n1cc(CCCN=C(NC(=O)OC(C)(C)C)NC(=O)OC(C)(C)C)nn1	0.4	-11%	2.1%	11	-4	2%	-11%
CCOc1cc(N2CCOCC2)c(OCC)cc1NS(=O)(=O)c1cc(NC(C)=O)ccc1OC	1.9	9%[15.4 µM]	x	-3	6	-12%	-2%
CCOC(=O)c1cnn(-c2ncnc3sc(C)c(C)c23)c1N	4.4	4%	-1.6%	-8	-5	2%	11%
CCOC(=O)c1cnc(-n2cc(C)cn2)nc1NCc1ccc2c(c1)OCO2	1.0	3%	-1.7%	2	-6	-8%	79µM*
COc1cccc(NC(=O)C2CC2(c2cccc(OC)c2)c2cccc(OC)c2)c1 (stereo not given)	5.2	11%[15.4 µM]	-2.5%	-1	-5	-41%	16%
O=C(CN1C(=O)CSC1=O)NCc1ccccc1	-4.1	-61%[inhibitor]	0.1%	10	-5	-8%	11%
O=C(C1CCN(S(=O)(=O)c2cnc[nH]2)CC1)N1CCn2c1nc1ccccc12	5.8	-49%[inhibitor]	2.1%	0	-32	13%	18%
Cc1c(O)c(S(=O)(=O)c2ccccc2)c(=O)n(-c2ccccc2)c1-c1ccccc1	-0.5	1%	3.7%	4	0	1%	10%
CCCC(=O)N1CCc2cc(OC)c(OC)cc2C1COc1ccccc1OC (stereo not given)	0.7	2%	0.2%&-1.3%	3	-3	-7%	13%
CC(=O)c1sc(-c2ccccc2)cc1N	4.0	8%[15.4 µM]	x	-1	-11	-1%	8%
COc1ccc(C(C(=O)NCC2CCCO2)N(C(=O)CNC(=O)c2ccco2)c2cc(C)ccc2C)cc1OC (stereo not given)	-9.7	-1%[15.4 µM]	2.2%	-20	-1	-15%	4%
O=C1C=C(c2cccnc2)CCC1	x	-13%	1.0%	x	-4	13%	x
c1ccc(-c2ccc(-c3nc(-c4cccnc4)no3)cc2)cc1	-0.9	-5%	14µM*	17	-1	-2%	-17%
CCn1c(C(=O)N2CCC(C(=O)NCc3ccc(OC)cc3)CC2)cc2sccc21	-0.2	5%	-0.3%	-2	-2	-11%	32%[activator]
O=C(c1cc(-c2ccncc2)nc2ccc(Cl)cc12)N1CCN(C(=O)C2CCCO2)CC1 (stereo not given)	14	2%	-3.7%	9	5	0%	17%
CCOc1cc(S(=O)(=O)N2CCC(C(N)=O)CC2)ccc1F	-0.3	-1%	1.8%	26	-4	0%	6%
OC1(c2ccc(Br)cc2)CCN(Cc2cccc(Br)c2)CC1	0.7	-97%[inhibitor]	0.4%	-9	-82	16%	-7%
O=C(NN1CCOCC1)NC12CC3CC(CC(C3)C1)C2	2.6	-8%[15.4 µM]	-5.0%	3	-10	8%	23%
CSCC[C@H](NC(=O)NCCc1ccc(F)cc1)C(=O)O	2.9	15%	-1.9%	x	3	4%	18%
CC(C)(C)NC(=O)C(c1ccncc1)N(Cc1cccs1)C(=O)Cn1nnc(-c2ccc(F)cc2)n1 (stereo not given)	-0.1	-4%	0.4%	-5	11	-16%	3%
C=CCNc1ccc(F)c(F)c1N1CCCCCC1=O	-1.6	-25%	-0.2%	4	-6	1%	12%
COc1ccc(NC(=O)CN(C)C(=O)CCSc2ccc(F)cc2)cc1	x	17%	1.8%	-6	-34	4%	x
COc1ccc(C(=O)OCC(=O)N2CCN(S(=O)(=O)c3ccc(C)cc3)CC2)cc1[N+](=O)[O-]	x	-23%	0.0%	x	0	-36%	x
COc1ccc(S(=O)(=O)N2CCOC2CNC(=O)C(=O)NCCCN2CCCC2=O)cc1OC (stereo not given)	x	-41%[inhibitor]	-2.8%	x	-12	x	x
CCOC(=O)Cn1c(CN2CCc3ccccc3C2)nc2c1c(=O)n(C)c(=O)n2C	1.8	-2%	-3.9%	3	-3	3%	23%
CCOc1cc(CNCc2ccncc2)cc(Br)c1OCc1ccc(F)cc1	-1.4	-11%	-0.2%	-13	-14	-13%	u
COc1ccc(CN2CCN(C(=O)Cn3ncn4cccc4c3=O)CC2)c(OC)c1OC	5.0	-58%[inhibitor]	-17%	4	-8	4%	25%
CCOC(=O)c1ccc(N=c2sc(C(=O)OC)cc(=O)n2C2CC2)cc1	6.2	-6%	0.9%	-4	-15	-10%	13%
CCCCC(=O)Nc1nnc(-c2ccco2)o1	6.7	6%[15.4 µM]	-1.6%	5	-10	7%	-13%
O=C(c1ccco1)N1CCN(C(=O)N2CCOCC2)CC1	-0.7	-23%	-0.8%	18	1	6%	8%
O=C(O)CCC(=O)Nc1sc2c(c1C(=O)Nc1cccc3ccccc13)CCCCC2	u	u	-2.1%	16	-3	-13%	50µM*
Cc1nn(-c2ccccc2)c(C)c1C(=O)NCc1ccc(F)cc1	1.3	u	1.2%	-2	-19	u	19%
CCOc1ccccc1NC(=O)NC1CC2CCCC(C1)N2Cc1nnnn1CCc1ccccc1 (stereo not given)	4.4	0%	-2.5%	-1	-24	-1%	17%
CN(C)S(=O)(=O)c1ccc(C(=O)NCc2ccccc2)cc1	5.4	1%	-0.3%	-4	-2	-11%	8%
CCOc1ccc(CCNC(=O)COC(=O)c2cccnc2Cl)cc1OCC	x	7%[15.4 µM]	x	10	-5	9%	x
CCN(CC)C(=O)c1cccc(NC(=O)C2CCN(C(=O)c3cccs3)CC2)c1	x	0%	-0.8%	x	-18	-20%	x
CCCNC(=O)N(C)C[C@H]1Oc2ncc(Br)cc2C(=O)N([C@H](C)CO)C[C@H]1C	x	-1%	-3.9%	x	-6	x	x
CCOC(=O)c1sc(N=NC2=C(O)CC(C)(C)CC2=O)c(C(=O)OCC)c1C	3.7	15%[15.4 µM]	-0.2%	-6	-17	3%	16%
O=C(O)CSC1CC(=O)N(c2cccc(Cl)c2)C1=O (stereo not given)	-3.1	-12%	1.2%	-30	1	13%	-16%

Reprinted at random: two records from the list
SMILES	Menin MLL FP FL	gsp ag	ClpP mod	TRPV1 PAM	D2 PAM	gsp antag	Sfp PPTase inh
O=C(O)CCC(=O)Nc1sc2c(c1C(=O)Nc1cccc3ccccc13)CCCCC2	u	u	-2.1%	16	-3	-13%	50µM*
CCOc1ccc(CCNC(=O)COC(=O)c2cccnc2Cl)cc1OCC	x	7%[15.4 µM]	x	10	-5	9%	x
